Screening data from PubChem BioAssay.
Vaccinia inh = blocks a specific stage of Vaccinia orthopoxvirus infection; 89,000 tested, 0.01% active; activity change (mCherry), % (no concentration beside the values); Vaccinia-infected cells, mCherry/Venus stage reporter fluorescence; hits give low values; some inactives read as strong as hits;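 active means mCherry past -33% and 40 or more points under the early reporter, replicates agreeing; inconclusive means past -33% without that gap or agreement; tested in A549 cells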;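 further: scaled between vehicle wells and reference inhibitor wells; 23 nL library stock went into each well; one replicate is shown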
Vaccinia inh Venus = also measured in Vaccinia inh; calls as there; activity change (Venus), %; measured here: Venus reporter, other viral stage;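 negative = less Venus signal; first of two replicates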
* marks the source's active call; other numbers are inactive results; u = inconclusive; x = not tested or not shown. This is a subset (hit frequency here may not be typical).

Order of values – Vaccinia inh | Vaccinia inh Venus
C[C@H](CO)N1C[C@H](C)[C@@H](CN(C)C(=O)NC2CCCCC2)OCCCC[C@H](C)Oc2ccc(NC(=O)Nc3cccc4ccccc34)cc2C1=O
 : 29 | 22
O=C(NCC[C@H]1CC[C@@H](NC(=O)C2CCCCC2)[C@@H](CO)O1)Nc1ccc(Cl)cc1
 : -11 | -15
Cc1noc(C)c1NC(=O)N(C)C[C@@H]1Oc2ccc(NS(=O)(=O)c3c(C)noc3C)cc2CC(=O)N([C@@H](C)CO)C[C@@H]1C
 : 8 | 4
COc1cc(CN2CC3(CN(S(=O)(=O)c4cn(C)cn4)C3)c3c(n(C)c4cc(OC)ccc34)[C@@H]2CO)cc(OC)c1
 : 8 | 2
O=C(c1cnccn1)N1CC(=O)N2[C@H](CO)[C@H](c3ccc(-c4cccc(F)c4)cc3)[C@@H]2C1
 : 5 | 6
O=C(CN1CCOCC1)NCC[C@@H]1CC[C@H](NS(=O)(=O)c2ccc(F)cc2)[C@@H](CO)O1
 : 6 | 8
CC(=O)N1C[C@@H]2[C@H](c3ccccc31)[C@@H](CO)N2C(=O)Nc1ccc(F)cc1
 : 4 | 7
CO[C@H]1CN(C)C(=O)c2cc(NC(=O)CC(F)(F)F)ccc2OC[C@@H](C)N(CC2CC2)C[C@H]1C
 : -1 | -4
CN(C)CC(=O)N[C@@H]1C[C@@H]2O[C@@H](CO)CC[C@@H]2O[C@@H]1CCc1ccc(-c2ccc(F)cc2)cc1
 : u | x
C[C@@H]1CN([C@H](C)CO)C(=O)c2cc(NC(=O)CCC(F)(F)F)ccc2O[C@@H](C)CCCCO[C@H]1CN(C)C(=O)C1CCCCC1
 : -7 | 0

The list continues.
Order of values – Vaccinia inh | Vaccinia inh Venus
COc1ccc(NC(=O)Nc2ccc3c(c2)C(=O)N([C@@H](C)CO)C[C@@H](C)[C@H](CN(C)C(=O)C2CCCCC2)OCCCC[C@@H](C)O3)cc1
 : -17 | -18
Cc1nn(C)cc1NC(=O)C[C@H]1CC[C@@H]2[C@H](COc3ccc(NC(=O)Nc4cccc(Cl)c4)cc3C(=O)N2C)O1
 : 12 | 2
C[C@@H]1CN([C@H](C)CO)S(=O)(=O)c2ccc(Br)cc2O[C@H]1CN(C)S(=O)(=O)c1ccc(F)cc1
 : -26 | -30
COc1ccc2c3c(n(C)c2c1)[C@H](CO)NCC31CCN(C(=O)Nc2ccc3c(c2)OCO3)CC1
 : -29 | -23
Cc1cc(C(=O)Nc2cccc3c2O[C@H](CN(C)S(C)(=O)=O)[C@@H](C)CN([C@@H](C)CO)C3=O)n(C)n1
 : 18 | 6
C[C@@H]1CN([C@@H](C)CO)C(=O)c2cc(NC(=O)CCN3CCOCC3)ccc2O[C@H]1CN(C)S(C)(=O)=O
 : 7 | -1
O=C(NC1CCCC1)N1CCCCN2[C@@H](CO)[C@H](c3ccc(-c4cccnc4)cc3)[C@@H]2C1
 : 9 | 3
CO[C@@H]1CN(C)C(=O)c2ccc(NC(=O)C3CCCC3)cc2OC[C@@H](C)N(C(C)=O)C[C@@H]1C
 : 5 | 23
O=C(C[C@H]1CC[C@H]2[C@@H](COC[C@@H](O)CN2Cc2nccs2)O1)NCc1ccc(-c2ccccc2)cc1
 : -28 | -20
COc1cccc(-c2ccc3n(c2=O)C[C@@H]2[C@@H](CO)[C@H](C(=O)NC4CCCC4)[C@H]3N2C)c1
 : -8 | -1

Further entries:
Order of values – Vaccinia inh | Vaccinia inh Venus
CCCc1cn(CC[C@@H]2CC[C@H](NC(=O)CCN3CCCCC3)[C@@H](CO)O2)nn1
 : 9 | 12
CN1C(=O)c2cc(NC(=O)Cc3cccs3)ccc2OC[C@H]2O[C@H](CC(=O)O)CC[C@@H]21
 : 6 | 6
C[C@@H]1CCCCO[C@H](CN(C)C(=O)C2CCCCC2)[C@@H](C)CN([C@H](C)CO)C(=O)c2cc(NC(=O)C3CCCCC3)ccc2O1
 : -2 | -5
C[C@@H]1CN([C@@H](C)CO)C(=O)c2cc(N(C)C)ccc2O[C@@H](C)CCCCO[C@@H]1CN(C)Cc1ccc(C(F)(F)F)cc1
 : u | x
COc1ccccc1C#Cc1cnc2c(c1)C(=O)N([C@@H](C)CO)C[C@@H](C)[C@@H](CN(C)C(=O)c1ccc3c(c1)OCO3)O2
 : u | x
C[C@@H]1CN([C@@H](C)CO)C(=O)c2cc(NC(=O)c3ccccc3)ccc2O[C@@H](C)CCCCO[C@H]1CN(C)CC1CCCCC1
 : u | x
C[C@H]1CN([C@@H](C)CO)C(=O)c2cc(Br)cnc2O[C@@H]1CN(C)C(=O)c1ccc(F)cc1
 : 2 | -1
OC[C@@H]1[C@H](c2ccc(-c3ccc(F)cc3)cc2)[C@@H](CNC2CCCC2)N1CCC(F)(F)F
 : u | x
C[C@@H]1CN([C@@H](C)CO)C(=O)c2cc(NC(=O)Nc3ccccc3)ccc2O[C@@H](C)CCCCO[C@H]1CN(C)C(=O)Cc1ccccc1
 : 8 | 2
CS(=O)(=O)Nc1ccc2c(c1)[C@@H]1C[C@H](CC(=O)NCc3cc(F)ccc3F)O[C@@H](CO)[C@@H]1O2
 : 0 | -4

(next part)
Order of values – Vaccinia inh | Vaccinia inh Venus
C[C@H](O)C#Cc1ccc2c(c1)O[C@@H](CN(C)C(=O)C1CC1)[C@H](C)CN([C@@H](C)CO)S2(=O)=O
 : 16 | 10
Cc1noc(C)c1S(=O)(=O)Nc1ccc2c(c1)C(=O)N([C@@H](C)CO)C[C@@H](C)[C@@H](CN(C)C(=O)NC1CCCCC1)O2
 : 12 | 6
CCCNC(=O)N1CC[C@@H]2[C@H]1c1cc(-c3ccc(OC)cc3)ccc1N(C)[C@H]2CO
 : -27 | -19
COC(=O)C[C@@H]1CC[C@H]2[C@H](COc3ccc(NC(=O)Nc4cccc(C#N)c4)cc3C(=O)N2C)O1
 : -3 | 1
CNC[C@H]1OCCCC[C@H](C)Oc2ccc(NC(=O)NC3CCCCC3)cc2C(=O)N([C@H](C)CO)C[C@@H]1C
 : -13 | 7
CCC(=O)Nc1ccc2c(c1)C(=O)N(C)[C@@H]1CC[C@H](CC(=O)N[C@@H](C)c3ccccc3)O[C@H]1CO2
 : 7 | 6
Cc1noc(C)c1S(=O)(=O)N(C)C[C@H]1OCCCC[C@H](C)Oc2ccc(NS(C)(=O)=O)cc2C(=O)N([C@@H](C)CO)C[C@@H]1C
 : 14 | 5
C[C@@H]1CN([C@H](C)CO)C(=O)c2cc(-c3cccc(C#N)c3)cnc2O[C@H]1CN(C)C(=O)C1CC1
 : 41 | 13
COC(=O)[C@H]1[C@H](CO)[C@H]2Cn3c(ccc(C4=CCCCC4)c3=O)[C@H]2N1C(=O)C1CC1
 : 14 | 5
C[C@@H]1CN([C@@H](C)CO)C(=O)Cc2cc(NS(=O)(=O)c3ccc(Cl)cc3)ccc2O[C@H]1CN(C)C(=O)Nc1ccccc1
 : -17 | -15

Individual results from above:
`COC(=O)C[C@@H]1CC[C@H]2[C@H](COc3ccc(NC(=O)Nc4cccc(C#N)c4)cc3C(=O)N2C)O1` – Vaccinia inh Venus = 1
`CNC[C@H]1OCCCC[C@H](C)Oc2ccc(NC(=O)NC3CCCCC3)cc2C(=O)N([C@H](C)CO)C[C@@H]1C` – Vaccinia inh = -13

Whole records from above.
Entry for C[C@@H]1CN([C@@H](C)CO)C(=O)c2cc(NC(=O)c3ccccc3)ccc2O[C@@H](C)CCCCO[C@H]1CN(C)CC1CCCCC1 = Vaccinia inh: u; Vaccinia inh Venus: x
Entry for C[C@@H]1CN([C@H](C)CO)C(=O)c2cc(NC(=O)CCC(F)(F)F)ccc2O[C@@H](C)CCCCO[C@H]1CN(C)C(=O)C1CCCCC1 = Vaccinia inh: -7; Vaccinia inh Venus: 0

(further entries)
SMILES	Vaccinia inh	Vaccinia inh Venus
Cc1ccc(S(=O)(=O)N(C)C[C@H]2Oc3ccc(NC(=O)C4CC4)cc3CC(=O)N([C@@H](C)CO)C[C@@H]2C)cc1	-8	-4
C[C@H](CO)N1C[C@H](C)[C@@H](CN(C)C(=O)Nc2ccccc2F)Oc2cc(-c3cccc(C#N)c3)ccc2S1(=O)=O	-20	-23
CCC(=O)Nc1ccc2c(c1)OC[C@H](C)N(Cc1nccs1)C[C@H](C)[C@H](OC)CN(C)C2=O	-6	5
O=C(N[C@H]1CC[C@@H](CCNS(=O)(=O)c2ccc(F)cc2)O[C@@H]1CO)C1CCCC1	3	0
COc1ccccc1S(=O)(=O)N(C)C[C@@H]1Oc2cc(/C=C/c3ccccc3)ccc2S(=O)(=O)N([C@H](C)CO)C[C@@H]1C	-9	-16
Cc1ccc(S(=O)(=O)Nc2cccc3c2O[C@@H](CN(C)Cc2ccccc2)[C@@H](C)CN([C@@H](C)CO)C3=O)cc1	1	5
C[C@@H]1CN([C@H](C)CO)C(=O)c2cc(C3=CCCC3)cnc2O[C@H]1CN(C)C(=O)Nc1ccc(F)cc1	7	9
COc1ccc2c3c([nH]c2c1)[C@@H](CO)N(Cc1cc(F)ccc1F)CC31CN(C)C1	-11	-18
CN1C(=O)c2cc(NC(=O)c3ccc(C#N)cc3)ccc2OC[C@H]2O[C@@H](CC(=O)NC3Cc4ccccc4C3)CC[C@@H]21	-28	-23
COc1cccc(C#Cc2ccc3c(c2)[C@H]2[C@H](CCN2C(=O)c2ccc4c(c2)OCO4)[C@H](CO)N3)c1	-2	3
O=C(O)C[C@H]1C[C@H]2c3cc(NC(=O)Nc4ccccc4)ccc3O[C@H]2[C@@H](CO)O1	9	2
CCCNC(=O)C[C@H]1CC[C@H]2[C@H](COc3ccc(NS(=O)(=O)c4ccccc4C)cc3C(=O)N2C)O1	3	0

Next entries.
SMILES	Vaccinia inh	Vaccinia inh Venus
Cc1noc(C)c1S(=O)(=O)Nc1ccc2c(c1)C(=O)N([C@@H](C)CO)C[C@H](C)[C@H](CN(C)Cc1ccccc1)OCCCC[C@@H](C)O2	-34	-24
O=C(O)[C@@H]1[C@@H](CO)[C@@H]2Cn3c(cccc3=O)[C@@H]2N1C(=O)NC1CCCC1	-8	-5
CN1C(=O)c2cc(NC(=O)c3ccc(F)c(F)c3)ccc2OC[C@H]2O[C@@H](CC(=O)Nc3ccc4c(c3)COC4)CC[C@@H]21	1	0
CCCNC(=O)C[C@@H]1CC[C@H]2[C@@H](COC[C@@H](O)CN2C(=O)C2CCOCC2)O1	6	8
CO[C@H](CN(C)C(=O)Nc1ccc(C(F)(F)F)cc1)[C@@H](C)CN(Cc1ccccc1Cl)[C@@H](C)CO	u	x
N#C[C@H]1[C@@H](c2ccccc2-c2ccc(F)cc2)[C@@H](CO)N1C(=O)Cc1cccnc1	4	0
C[C@H](CO)N1C[C@H](C)[C@@H](CN(C)S(=O)(=O)c2cccs2)Oc2ccc(NC(=O)CCN3CCOCC3)cc2C1=O	6	-4
C[C@@H](NC(=O)C[C@@H]1CC[C@H](NC(=O)C2CCOCC2)[C@H](CO)O1)c1ccccc1	6	18
O=C(C[C@@H]1C[C@H]2c3cc(NC(=O)NC4CCCCC4)ccc3O[C@H]2[C@H](CO)O1)NCC1CC1	6	3
CCN1[C@@H]2Cn3c(ccc(-c4cccnc4)c3=O)[C@H]1[C@@H](C(=O)NC1CCCC1)[C@@H]2CO	0	-3
Cc1ccc(S(=O)(=O)Nc2cccc3c2O[C@@H](CN(C)CC2CC2)[C@@H](C)CN([C@H](C)CO)C3=O)cc1	9	12
CNC[C@H]1Oc2c(NC(=O)NC(C)C)cccc2C(=O)N([C@H](C)CO)C[C@@H]1C	15	0

Of the compounds above, these have a COOH group.
SMILES	Vaccinia inh	Vaccinia inh Venus
CN1C(=O)c2cc(NC(=O)Cc3cccs3)ccc2OC[C@H]2O[C@H](CC(=O)O)CC[C@@H]21	6	6
O=C(O)C[C@H]1C[C@H]2c3cc(NC(=O)Nc4ccccc4)ccc3O[C@H]2[C@@H](CO)O1	9	2
O=C(O)[C@@H]1[C@@H](CO)[C@@H]2Cn3c(cccc3=O)[C@@H]2N1C(=O)NC1CCCC1	-8	-5

Carrying on:
SMILES	Vaccinia inh	Vaccinia inh Venus
C[C@@H]1CN([C@H](C)CO)C(=O)c2cccc(NC(=O)Nc3ccc(C(F)(F)F)cc3)c2O[C@H]1CN(C)C(=O)Nc1ccccc1	-9	2
C[C@@H]1CN([C@@H](C)CO)C(=O)Cc2cc(NC(=O)Cn3cnnn3)ccc2O[C@H]1CN(C)Cc1ccc(Cl)c(Cl)c1	-5	-1
C[C@@H]1CN([C@H](C)CO)C(=O)c2cc(C#CCN(C)C)cnc2O[C@@H]1CN(C)C(=O)Cc1ccncc1	18	20
Cc1ccc(-c2ccccc2[C@H]2[C@@H](CO)N(S(C)(=O)=O)[C@H]2C#N)cc1	-7	3
CN1c2ccc(C3=CCCCC3)cc2[C@@H]2[C@@H](CCN2C(=O)C2CCCCC2)[C@H]1CO	-28	-20
C[C@@H]1CN([C@@H](C)CO)C(=O)c2cccc(NC(=O)c3ccc(-c4nccs4)cc3)c2O[C@@H]1CN(C)Cc1ccc(-c2ccccc2)cc1	-31	-27
C[C@H]1CN([C@@H](C)CO)C(=O)c2cccc(NC(=O)Nc3ccc4c(c3)OCO4)c2O[C@@H]1CN(C)CC1CC1	16	11
CCC(=O)N1CC2(C1)[C@@H](c1ccc(-c3ccccc3OC)cc1)[C@@H](CO)N2C(C)=O	4	13
CCCNC(=O)N1C[C@@H]2[C@H](c3ccccc31)[C@@H](CO)N2Cc1ccc2c(c1)OCO2	10	12
CC(C)CN1C(=O)[C@@]2(c3ccc([N+](=O)[O-])cc3)CC(=O)N(CC3C4CC5CC(C4)CC3C5)[C@@H]2c2ccc(CO)cc21 (stereo partly drawn)	0	9
O=C(C[C@H]1CC[C@@H]2[C@H](COC[C@@H](O)CN2Cc2ccccc2F)O1)N[C@H]1CCN(Cc2ccccc2)C1	-6	-8
COc1ccc(S(=O)(=O)N(C)C[C@H]2OCCCC[C@H](C)Oc3ccc(NC(=O)NC4CCCCC4)cc3C(=O)N([C@H](C)CO)C[C@@H]2C)cc1	-17	-11
